# gsp ag: activates gsp, the McCune-Albright syndrome mutation; gsp mutant cells, cAMP HTRF, 30 min; control for the full effect not named in the record; AID 624287; Potency, µM (titrated, usually from 76.9 µM), inactives show at the highest dose activation (cAMP increase), hits mostly activators; 0.13% of 340,000 active; active = well fitted activation curve with a large enough effect; inconclusive = small, poorly fitted or top-dose-only effect, or another doubt; inactive = no such curve, though single readings can be large or run the other way; cell line not stated here;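 also: phosphodiesterase inhibitor Ro 20-1724 added with compounds to block cAMP breakdown; potency is read from the fitted curve at half-maximal effect; nearly all actives have a fitted effect of over 60% in size; about a fifth of the inactives were tested at one dose only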
#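 Cells in DMEM/10% FBS with G418 were pretreated with compounds in DMSO plus […] (300 uM stock) for 30 min at 37C. cAMP was measured by HTRF (cAMP-d2 plus anti-cAMP antibody-K) after 30 min at room temperature.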
# D2 ag: agonists of human D2 dopamine receptor (beta-arrestin); 0.084% of 360,000 active; DiscoveRx PathHunter D2 beta-arrestin, luminescence, 90 min; 100% = 57 uM dopamine signal; activation, % (concentration not given with the values); in the data active = activation above about 40%; inconclusive = about 15% to 40%; inactive = below about 15%; also: compound concentration not given in the record; the text of the record calls up to 30% inactive
# Target sequence (P14416 whole entry, looked up): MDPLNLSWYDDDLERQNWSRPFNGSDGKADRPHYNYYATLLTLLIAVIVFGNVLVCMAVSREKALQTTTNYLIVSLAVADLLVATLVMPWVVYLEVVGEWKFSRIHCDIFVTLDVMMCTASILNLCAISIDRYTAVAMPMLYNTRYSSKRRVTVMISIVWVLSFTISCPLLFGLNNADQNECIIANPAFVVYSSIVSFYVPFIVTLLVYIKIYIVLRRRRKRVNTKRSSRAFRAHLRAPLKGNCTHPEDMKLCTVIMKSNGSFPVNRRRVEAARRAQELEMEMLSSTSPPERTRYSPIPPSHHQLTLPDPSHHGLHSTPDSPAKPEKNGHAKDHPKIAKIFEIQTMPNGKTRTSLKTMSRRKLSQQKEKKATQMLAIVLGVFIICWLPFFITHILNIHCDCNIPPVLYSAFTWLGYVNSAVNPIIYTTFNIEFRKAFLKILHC
#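 Agonist mode: compounds alone added to overnight-plated D2 PathHunter cells for 90 min at 37 C, with 57 uM final dopamine (EC100) defining full response. Beta-arrestin recruitment detected by chemiluminescent reagent, read after 1 h at ambient temperature.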
# PINK1 modulator: PINK1 expression modulation. PINK1 immunofluorescence, high-content cytometry, 24 h. Potency, µM (titrated, usually from 76.6 µM), for the others: at the highest dose activation (PINK1 increase), actives largely listed as activators. AID 624263. 0.2% of 410,000 active; active = well fitted activation curve with a large enough effect; inconclusive = small, poorly fitted or top-dose-only effect; inactive = flat fitted curve, though single readings scatter; cell line not stated here;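 also: potency is read from the fitted curve at half-maximal effect; % of control where 0% means no effect; nearly all actives have a fitted effect of over 65% in size; a mitochondrial uncoupler was the plate control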
#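 Decision-based qHTS: stable cells, 24 h exposure to five compound concentrations, CCCP as control. Fixed cells stained for PINK1 plus nuclear, mitochondrial and cell markers, cytometer read.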
# ClpP mod: qHTS Assay for Activators of ClpP; AID 651965, 2013; ATP-dependent Clp protease proteolytic subunit (Bacillus subtilis (strain 168)), P80244; Potency, µM (titrated, usually from 57.5 µM), for the others: top-dose activity change, negative = active; purified B. subtilis ClpP, FRET peptide cleavage, 20 min; 1.9% of 340,000 active; active = well fitted falling curve with a large enough effect; inconclusive = small, poorly fitted or top-dose-only effect; inactive = no such curve, though single readings can be large or run the other way; also: potency is read from the fitted curve at half-maximal effect; the source files actives as falling curves though it sought activators and does not explain the sign; nearly all actives have a fitted effect of over 65% in size; many hits overshoot -100%
# Target sequence (P80244 whole entry, looked up): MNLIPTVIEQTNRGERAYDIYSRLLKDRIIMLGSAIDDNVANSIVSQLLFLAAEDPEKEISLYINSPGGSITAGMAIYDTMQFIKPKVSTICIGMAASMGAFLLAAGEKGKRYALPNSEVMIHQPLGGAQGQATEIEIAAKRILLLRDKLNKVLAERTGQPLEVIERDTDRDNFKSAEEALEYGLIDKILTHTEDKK
#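 Buffer: 100 mM Tris/HCl pH8, 100 mM KCl, 0.05% low protease BSA, 2.5% glycerol, 0.01% Tween-20. ClpP 10 microg/mL final; 20 min RT; delta FRET normalized to ADEP and DMSO controls.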
# Menin MLL FP FL: inhibitors of human menin-MLL interaction, wild-type MLL peptide; Fluorescence polarization, fluorescein-MLL peptide displacement from menin; AID 1766; 290,000 tested, under 10 active; FP activity change, % at 61.4 µM; inconclusive = falling polarisation curve, or a change in total fluorescence; inactive = total fluorescence flat and polarisation flat or rising; no compound was filed as active; the % refers to the polarisation; negative = inhibition;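 also: % of control where 0% means no effect; inhibitors lower the polarisation; unlabelled MLL peptide was the positive control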
# Sfp inh: blocks B. subtilis Sfp PPTase activity; Q9F4F7; Biochemical Sfp PPTase activity, qHTS; Potency, µM, inactives show max response, negative = inhibition, usual class: inhibitors; 3.5% of 310,000 active; AID 1490; active = well fitted inhibition curve with a large enough effect; inconclusive = small, poorly fitted or top-dose-only effect, or another doubt; inactive = no such curve, though single readings can be large or run the other way;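 also: the enzyme is Sfp with the accession as filed and its product quenches rhodamine fluorescence; potency is read from the fitted curve at half-maximal effect; 0% = enzyme reaction without inhibitor and -100% = no enzyme wells; top concentration of the series not given in the record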
#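 Compounds were incubated with enzyme (final 15 nM) for 15 min at room temperature before substrate addition started the reaction. Fluorescence at 525 nm excitation, 598 nm emission was recorded immediately and after 30 minutes.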
# gsp antag: gsp mutant antagonism. gsp-mutant cells, cAMP HTRF, 30 min; control for the full effect not named in the record. Potency, µM (doses to about 76.9 µM), inactives show at the top dose activity change, negative = inhibition, actives largely listed as inhibitors. 0.4% of 340,000 active. AID 624288; active = falling curve of any shape with a large fitted effect; inconclusive = falling curve, mostly with a smaller effect; inactive = flat or rising curve; cell line not stated here;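 also: intracellular cAMP measured with PDE inhibitor Ro 20-1724 present during compound exposure; potency is read from the fitted curve at half-maximal effect; % is scaled to controls: 0 for no effect and ±100 for the full control effect; nearly all actives have a fitted effect of over 65% in size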
#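 Measurement of cellular cAMP by homogeneous time-resolved fluorescence following a 30 min compound exposure at 37C. The PDE inhibitor […] was present throughout; the assay buffer was DPBS with 0.05% BSA and 0.005% Tween 20.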
# Starred values were filed as active, the others as inactive; ? = inconclusive; / = no result given; [ ] = remark or other dose.
SMILES,gsp ag,D2 ag,PINK1 modulator,ClpP mod,Menin MLL FP FL,Sfp inh,gsp antag
FC(F)(F)c1cccc(Nc2cc(-c3ccccc3)nc3ncnn23)c1,-5.8%,-4.8,7.1%,-5.9%,5.5,23.5%,-3.2%
CCN(C[C@H]1N[C@@](CC)(C(=O)OC)[C@H]2C(=O)N(C)C(=O)[C@@H]12)C(=O)NC(C)C,/,0.9,-0.9%,0.7%,/,/,4.7%
CCCCn1c(N)c(N(CC(C)C)C(=O)c2cccc(S(=O)(=O)N(C)c3ccc(C)cc3)c2)c(=O)[nH]c1=O,-18.2%,6.9,19.0%,?,/,/,-9.7%
COc1cccc(C(=O)NCC(=O)NCc2cc(=O)n(C)c(=O)n2C)c1OC,?,-1.4,-0.1%,/,-0.4,17.6%,22.6%
CCn1c(SCC(=O)N2CCOCC2)nc2c([nH]c3ccccc32)c1=O,?,-1.3,3.8%,-14.2%,-0.6,5.1%,14.7%
COc1ccc([C@H]2CC(=O)C=C(c3ccc(F)cc3OCc3ccccc3)C2)cc1,/,-4.0,-1.1%,-3.8%,/,/,-6.1%
Cc1c(N2C(=O)/C(=C\c3ccc(N(C)C)cc3)N(C)C2=S)c(=O)n(-c2ccccc2)n1C,-65.4%[inhibitor],-11.8,3.6%,0.7%,?,10.6%,-31.0%
COc1cc(C2C(C#N)=C(C)NC(C)=C2C#N)cc(OC)c1OC,8.91µM*,3.9,1.3%,/,0.7,0.7%,10.5%
COc1ccccc1CCN=C(N)NS(=O)(=O)c1cccs1,-35.5%[inhibitor],-3.5,0.3%,0.4%,-3.3,-0.2%,2.9%
O=C(CSc1nnc(CNC(=O)c2c(F)cccc2F)o1)c1ccc(Cl)cc1,7.6%,1.2,-0.2%,0.6%,/,/,/
O=[N+]([O-])c1cc(CN2CCCC2)c2cccnc2c1O,2.9%,-2.0,15.6%,-17.8%,/,-2.1%,9.6%
Cc1ccc(-c2noc(CNC(=O)c3ccoc3C)n2)cc1,-38.9%[inhibitor],3.4,1.6%,/,8.5,6.1%,-2.7%
COc1ccc([N+](=O)[O-])cc1N(CC(=O)NCCSc1ccc(C)cc1)S(C)(=O)=O,-8.0%[15.4 µM],-6.1,0.4%,/,-3.4,4.7%,-8.5%
CSCCC(NC(=O)c1ccccc1Cl)C(=O)NCC1COc2ccccc2O1 (centres undefined),-40.4%[inhibitor],-4.4,0.9%,-1.7%,/,/,-12.6%
N=C1/C(=C/c2ccc(OCc3ccccc3F)cc2)C(=O)N=C2SC(CC(=O)N3CCOCC3)=NN12,?,-4.3,-0.3%,-3.6%,15.2,0.1%,-7.7%
O=c1[nH]oc(O)c1-c1ncc(C(F)(F)F)cc1Cl,-2.4%,-3.3,3.6%,/,1.6,33.5%[activator],-5.7%
CCn1c2ccc(C)cc2c2nnc(SCCN3CCOCC3)nc21,14.6%[15.4 µM],-4.3,-0.3%,-2.3%,0.2,-4.9%,-9.6%
COC(=O)CSc1nc2c(c(C3CC=CCC3)c1C#N)CCC2 (centres undefined),18.9%,-3.9,-1.1%,1.6%,0.7,-14.1%,-15.7%
CCOC(=O)CNC(=O)COc1coc(CN2CCN(c3ccccc3F)CC2)cc1=O,19.8%,5.1,1.1%,-1.5%,/,5.2%,10.3%
COC(=O)CCCC(=O)NC(C)c1cnn(-c2ccccc2C)c1C (centres undefined),6.9%,3.1,0.2%,/,-0.4,11.1%,10.1%
C=CC(=O)N1c2ccccc2Sc2ccc(NC(=O)OCC)cc21,-21.4%,-7.8,6.7%,-1.7%,/,/,11.5%
CC1CCCCC1NC(=O)C1CCC(CNS(=O)(=O)c2ccc(F)cc2)CC1 (centres undefined),6.0%,3.4,10.6%,-1.3%,-3.5,-1.4%,-2.1%
CC(C)n1c(=O)[nH]c2ccccc21,-23.2%,-1.7,15.8%[38.3 µM],-5.4%,-0.4,5.9%,4.1%
COc1ccc(OC)c(NS(=O)(=O)c2ccc(NC(C)=O)cc2)c1,-66.3%[inhibitor],-2.1,12.3%,0.3%,1.5,2.7%,1.7%
CCC(=O)Nc1cccc(NC(=S)NC(=O)c2ccccc2Cl)c1,-29.2%,1.1,1.6%,-1.6%,5.2,2.2%,2.9%

# Continuation.
SMILES,gsp ag,D2 ag,PINK1 modulator,ClpP mod,Menin MLL FP FL,Sfp inh,gsp antag
COC(=O)CC1COc2ccccc2N1C(=O)c1cccc(C(F)(F)F)c1 (centres undefined),-1.0%[15.4 µM],-2.6,1.1%,-3.1%,-3.9,9.6%,1.8%
Cc1ccc(-n2ncc3c2CC(C)(C)CC3NC(=O)CCCN2CCCC2=O)cc1 (centres undefined),10.8%,-1.2,0.4%,-1.2%,/,4.2%,15.1%
CCn1c(SCC(=O)N2CCCCCC2)nc2c([nH]c3ccccc32)c1=O,3.5%[15.4 µM],-2.7,10.2%,-8.5%,/,16.9%,4.3%
C=CCn1c(SCc2ccc3nonc3c2)nnc1-c1cccs1,-24.0%,-0.8,-1.1%,-6.5%,-0.9,-2.3%,-10.8%
Cc1cccc(NC(=O)c2cc(Cl)ccc2[N+](=O)[O-])c1,-5.9%[15.4 µM],3.5,3.5%,-2.5%,1.2,-3.2%,9.0%
CC(C)Oc1ccc(C(=O)NC(Cc2c[nH]c3ccccc23)C(=O)NN)cc1 (centres undefined),?,-5.0,-0.7%,-0.8%,0.5,3.4%,4.7%
COc1ccc(CC(=O)Nc2nc(C)cs2)cc1S(=O)(=O)N1CCOCC1,?,-1.3,1.3%,-0.2%,/,/,1.6%
O=C(NCc1ccco1)C1CCCN(S(=O)(=O)c2cccc3cccnc23)C1 (centres undefined),-115.9%[inhibitor],-3.4,0.5%,-0.8%,4.4,?,-0.4%
COc1ccccc1CN1CC(C(=O)N(C)CCOc2ccccc2)CCC1=O (centres undefined),?,-4.2,0.9%,-0.4%,-3.4,7.1%,-10.6%
NN/C(=C\[N+](=O)[O-])Nc1ccccc1,?,2.1,-2.5%,/,4.1,-14.3%,-2.9%
CCc1ccc2c(CC(=O)Nc3cccc(S(=O)(=O)N4CCOCC4)c3)coc2c1,12.4%,-3.2,1.8%,-3.6%,/,/,-25.1%
O=C(O)c1ccc(Nc2nc(-c3ccccc3)nc3ccccc23)cc1,16.1%,6.0,2.8%,-20.2%,-8.8,1.8%,-13.6%
CCOc1ccc(N2C(=O)CC(N3CCN(c4ccccc4F)CC3)C2=O)cc1 (centres undefined),-28.6%,-0.9,0.2%,0.6%,-2.3,3.8%,11.0%
COc1cccc(NC(=O)CN2C(=O)CSc3ccc(S(=O)(=O)N4CCC(C)CC4)cc32)c1,17.2%,0.8,2.7%,0.5%,-1.8,9.5%,-14.4%
CC1CCN(C(=O)c2ccc(S(=O)(=O)N3CCCCCC3)cc2)CC1,29.6%,1.5,2.2%,2.0%,/,/,10.3%
CCN1C[C@@H]2[C@@H]3C(=O)N(Cc4ccccc4)C(=O)[C@@H]3[C@](Cc3ccccc3)(C1=O)N2C(=O)c1ccc(Cl)cc1,2.7%,-2.1,0.7%,0.7%,/,/,-4.7%
COc1ccc(NS(=O)(=O)c2cc(NC(=O)c3ccc(F)cc3)ccc2OC)cc1,?,1.4,0.1%,0.4%,0.4,17.4%,-11.7%
Cc1nc(N[C@@H](Cc2ccccc2)C(=O)O)c2oc3ccccc3c2n1,1.8%,0.5,-1.1%,-13.8%,8.6,15.3%,4.2%
C#CCOCCOCCOCCNc1nc(N2CCN(C(=O)Cn3cc(CCCN=C(N)N)nn3)CC2)nc(N2CCN(C(=O)Cn3cc(CC(C)O)nn3)CC2)n1 (centres undefined),9.7%,-0.8,0.5%,0.1%,/,/,13.7%
O=C(N/N=C/c1cnc(N2CCCCC2)s1)c1ccc(C(F)(F)F)cc1,-1.3%,1.7,7.08µM*,5.7%,-1.9,11.8%,-3.6%
O=C(COc1ccc(F)cc1)NNC(=O)c1cc2ccccc2oc1=O,10.9%[15.4 µM],-0.1,12.4%,-1.8%,4.5,19.7%,7.6%
COCCC(=O)N(Cc1ccc2c(c1)OCO2)C(C(=O)NC1CCCCC1)c1ccncc1 (centres undefined),0.0%,-1.9,-0.7%,0.6%,0.2,3.2%,-6.5%
CCn1ncc(C2=NOC(C(=O)NCc3ccc(Cl)cc3)C2)c1C (centres undefined),8.7%,6.0,5.9%[38.3 µM],-0.2%,0.6,7.3%,2.1%
O=C(O)COn1c(-c2ccc(Cl)cc2)nc2ccc(Cl)cc21,8.9%[15.4 µM],0.5,3.6%,/,-1.9,20.5%,-10.8%
O=c1cc(O)n(C2CCCCCC2)c(=O)[nH]1,20.8%,-3.1,0.1%,0.0%,-17.0,-11.7%,-13.3%

# Continuation:
SMILES,gsp ag,D2 ag,PINK1 modulator,ClpP mod,Menin MLL FP FL,Sfp inh,gsp antag
CCOC(=O)c1sc(NC(=O)CSc2nc3c(cc2C#N)CCCCCC3)c(C#N)c1C,?,-2.8,?,-1.1%,15.0,3.1%,?
O=C(Nc1ccc(S(=O)(=O)NC2=NCCCCC2)cc1)c1ccco1,9.0%[15.4 µM],-4.9,0.3%,0.9%,-1.9,21.4%,-2.6%
O=C(C1=C[C@H](c2ccc(Br)cc2)C[C@H](OCc2ccc(CO)cc2)O1)N1CCOCC1,/,-1.4,-0.1%,4.6%,-2.5,-2.5%,-10.7%
Cc1csc(NC(=O)CSc2nnc(-c3ccoc3C)n2C(C)c2ccccc2)n1 (centres undefined),7.3%,4.2,1.4%,-6.3%,-2.4,-4.0%,-24.8%
CCOC(=O)N1CCN(C(=S)NC(=O)c2cncc(Br)c2)CC1,4.5%,4.6,2.7%,-0.6%,2.6,-19.5%,-1.5%
Nn1c(SCC(=O)Nc2nnc(-c3ccccc3)o2)nnc1C1CC1,-14.4%[15.4 µM],-5.4,1.9%,/,/,/,14.3%
COC(=O)C1=C(C)N=C2SC(C#N)=C(N)N2C1c1cccc(OC)c1 (centres undefined),-35.6%[inhibitor],-0.9,2.2%,0.0%,?,10.5%,-5.5%
O=C(c1ccc(NC2=NC3CS(=O)(=O)CC3S2)cc1)N1CCN(c2ccc([N+](=O)[O-])cc2)CC1 (centres undefined),-15.6%,-2.3,-0.2%,0.3%,/,15.6%,3.5%

# Screening results (PubChem)

# Rows were taken by chance (roughly 5.1% active in at least one column).
